CDC25B-CDK2 inh – human CDC25B-CDK2/CyclinA binding inhibition; AID 1259370; P30305+P24941; z-score (concentration not given with the values); HTRF CDC25B-CDK2/CyclinA binding, anti-His/anti-Flag; active compounds read high; actives 0.72% (n = 94,000);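 also: score is relative to mean and SD of negative controls; strong numbers were not always called active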
HIV TAR-Tat – HIV-1 TAR-Tat binding disruption | HIV-1 TAR RNA, Tat peptide displacement FRET; active compounds read high | z-score (test concentration not listed) | actives 0.6% (n = 100,000) | AID 1259389;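 also: score is relative to mean and SD of negative controls; some compounds called inactive have numbers as strong as hits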
An asterisk follows results filed as active; x = not tested or not shown.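 The calls were made as follows: active = z-score from 3 up in half or more of its runs; inactive = the rest.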 The order is random, and some 0.97% of all compounds hit somewhere here.

mol | CDC25B-CDK2 inh | HIV TAR-Tat
Cc1cc(NC(=O)c2cnc3ccccc3n2)on1 | -3 | x
Cc1ccc2nc(C)c(Cc3nnc(SCC(=O)Nc4ccc5c(c4)OCO5)n3C)c(=O)n2c1 | -0.3 | 0.46
Cc1ccc(Nc2c(-c3ccc(N(C)C)cc3)nc3cnccn23)cc1 | 0.71 | x
O=C(Nc1c(C(=O)c2cccs2)oc2ccccc12)c1cccs1 | 0.05 | 2.4
Cc1ccc(NS(=O)(=O)c2cc(-c3onc(C)c3C)ccc2C)cc1N(C)C | x | 0.79
O=C(c1ccco1)N1CCN(c2ncnc3onc(-c4ccc(Cl)cc4)c23)CC1 | 1.9 | 0.7
O=C(NCC1CCCO1)c1cccc2c1OCCCO2 (stereo not drawn) | -1.6 | x
O=C1CC(NCCc2c[nH]c3ccccc23)C(=O)N1c1ccc(Cl)cc1 (stereo not drawn) | -1.1 | 2
COC(=O)c1cnc(NC2CCCCC2)c2ccccc12 | x | 1
CC(C)c1cc(C2CCCN2C(=O)c2ccco2)no1 (stereo not drawn) | x | -0.02
O=C1CC(c2ccc3c(c2)OCO3)c2c(ccc3ccccc23)N1 (stereo not drawn) | 1.8 | 1.5
O=S(=O)(Oc1cccc(N2CCOCC2)c1)c1ccc(Cl)cc1 | -1.2 | x
CCOc1ccc(N(C)C2CCCCC2NS(=O)(=O)c2ccc(Cl)cc2)cc1 (stereo not drawn) | 0.66 | -0.15
CC1=CC(C)(C)N(C(=O)CN2C(=O)CCC2=O)c2ccc(C)cc21 | -0.49 | -0.05
COc1ccc(-c2nc(C(C)=O)cs2)cc1[N+](=O)[O-] | -4 | x
CCOC(=O)c1[nH]c(C)c(CN(CC2CCCO2)C(=O)c2ccco2)c1C (stereo not drawn) | x | 1.6
CC1=C(c2ccc(C(C)C)cc2)S(=O)(=O)NC1=NC1CCCC1 | -4.7 | 0.17
COc1cc(OC)c(N(C)C(=O)c2noc3c2CSc2ccccc2-3)cc1Cl | -0.8 | -0.48
Cc1ccc2nc(C3=C(O)CN(c4ccc(Cl)cc4C)C3=N)[nH]c2c1 | -0.9 | 1
CC1=NN(C(=O)c2ccc(Cl)cc2)C(C)(C)C1 | -0.46 | -0.23
C=CCN(C(=O)Cn1c(C(=O)OC)cc2ccsc21)c1ccccc1 | -0.94 | 1.2
O=C(Cn1cc(C(=O)c2ccco2)c2ccccc21)NCc1cccs1 | -3.1 | 3
O=S(=O)(NCCc1csc2nc(-c3ccccc3)nn12)c1cc(F)ccc1F | x | 1.2
CCc1cc2c(cc(C(=O)NC3CCCC3)n2C)s1 | 0.45 | -0.04
CCOC(=O)C1C(c2ccc(C)o2)NC(=O)NC1(O)C(F)(F)F (stereo not drawn) | -0.56 | x
CCOC(=O)CCc1c(C)nc2ccc(Br)cn2c1=O | -1.3 | -0.04
CCOC(=O)c1c(C)cc(OC)cc1O | x | 3.9
CC1=NOC(=O)/C1=C\c1ccccc1 | -0.32 | x
Cc1cccc(-c2nc(C)c(CCNS(=O)(=O)c3ccc(Br)cc3)s2)c1 | x | 2.6
O=C1c2cccnc2C(=O)N1Cc1ccc(F)cc1S(=O)(=O)NCc1ccccn1 | x | 1
O=C(Cn1c(=O)c2cccn2c2ccc(F)cc21)NCC1CCCO1 (stereo not drawn) | x | 2.2
Cc1[nH]c2ccccc2c1C(c1ccccn1)N1CCOCC1 (stereo not drawn) | -1 | x
CCOC(=O)c1nc(CS(=O)(=O)c2ccc(Cl)cc2)no1 | -0.12 | x
Cc1nc2sc(C(c3ccco3)N3CC(C)OC(C)C3)c(O)n2n1 (stereo not drawn) | 0.08 | x
Cc1nc2nc(N)[nH]n2c(=O)c1Cc1ccccc1 | 0.69 | 1.9
Cc1ccc(CN(C(=O)c2oc3ccccc3c2C)C2CCS(=O)(=O)C2)o1 (stereo not drawn) | -0.55 | 2.8
Nc1ccc(-c2nc(-c3ccccc3)c3cc(N)ccc3n2)cc1 | -1.7 | 0.05
O=C(N/N=C/c1cccs1)c1cc(-c2ccc3ccccc3c2)n[nH]1 | 0.46 | x
O=C(CSc1ncnc2c1nnn2-c1ccc(F)cc1)Nc1ccc2c(c1)OCCO2 | -0.91 | x
COc1ccc(C2CC(c3ccccc3O)=NN2)cc1 (stereo not drawn) | -1.1 | 1.2
Cc1ccc(S(=O)(=O)c2nnn3c2nc(NC2CCCC2)c2ccccc23)cc1 | -0.65 | -0.13
COc1ccc(C(=O)Nc2cc(C#N)c3[nH]c4ccccc4n3c2=O)cc1OC | -0.97 | -0.27
C=C(C)C1(O)OC(=O)C=C1OC (stereo not drawn) | x | 0.23
Cc1ccc(C(=O)Nc2c(C)nc3cc(C)ccn3c2=O)cc1 | x | 2.3
COc1ccc(Br)cc1C1CC(=O)NC2=C1C(=O)CC(C)(C)C2 (stereo not drawn) | -0.71 | -1.3
O=c1c2[nH]c3ccccc3c2ncn1CCN1CCN(Cc2ccccc2)CC1 | -0.14 | 1.2
CCCc1nn2c(=O)cc(COc3ccc(OC)cc3)nc2s1 | -1.5 | 1.7
CS(=O)(=O)CS(=O)(=O)Nc1cc(Cl)cc(Cl)c1 | 0.26 | x
C=C(c1ccccc1O)n1ccnc1 | -3.1 | x
Cc1ccc(-n2ccc(=O)c(C(=O)Nc3c(C(=O)c4ccccc4)oc4ccccc34)n2)cc1 | -1 | -0.46

More compounds.
mol | CDC25B-CDK2 inh | HIV TAR-Tat
COc1ccc(Nc2c(S(=O)(=O)c3ccccc3)cnc3ccc(F)cc23)cc1OC | 0.15 | -1.2
Nc1ccccc1SCC1=NNC(=O)c2ccccc2O1 | -1.4 | -2.2
COC(=O)C1=C(OC(=O)c2ccccn2)c2ccccc2S(=O)(=O)N1C(C)C | 0.94 | -0.24
COc1ccc(-n2ccn3c(CCC(=O)O)nnc3c2=O)cc1OC | -0.44 | -0.38
CCOc1ccccc1NC(=O)Nc1nc2ccccc2s1 | -2.6 | 0.69
C#CCn1c2ccccc2c2nc3ccccc3nc21 | x | 0.07
O=C(CSc1nnc2c3ccccc3nc(-c3ccccc3)n12)NCC1CCCO1 (stereo not drawn) | x | 0.69
COC(=O)c1c(-c2cccs2)csc1NC(=O)C(C)C | -1.7 | 0.59
O=S(=O)(NCC(c1ccco1)N1CCN(c2ccccc2F)CC1)c1ccc2c(c1)OCCO2 (stereo not drawn) | x | 1.5
Cc1cc(N)c(-n2cc3c(c2-c2ccccc2Br)c(=O)n(C)c(=O)n3C)cc1C | -2.4 | 1
Cc1ccc(-n2nnc(C(=O)O)c2C)cc1F | 0.24 | 2
CCc1nnc(SC(CC)C(=O)N2CCOCC2)c2cc3occc3n12 (stereo not drawn) | x | 2.4
O=C(/C=C1\OC(=O)c2ccccc21)Oc1cccc(C(F)(F)F)c1 | -0.62 | x
Cc1ccc(-n2nc3c([n+]2[O-])CCc2nonc2-3)cc1 | -0.63 | x
OCCCNc1ncnc2c1c(-c1ccccc1)cn2-c1ccccc1 | x | -1.4
CCN(CC)c1ccc(CN(C(=O)c2cc(=O)c3ccc(C)cc3o2)C2CCS(=O)(=O)C2)cc1 (stereo not drawn) | 0.06 | 1
c1csc(C2=NN3C(C2)c2ccccc2OC3c2ccc3c(c2)OCO3)c1 (stereo not drawn) | -0.1 | x
CCOC(=O)Cn1c(=O)c2c3c(sc2n(CC(=O)Nc2nccs2)c1=O)COC(C)(C)C3 | -1.8 | 2.9
CN(C)c1ccc(CN2CCc3nc(Nc4ccc5c(c4)OCCO5)ncc3C2)cc1 | x | 0.97
Cn1c(=O)[nH]c(=O)c2c1nc(N1CCCC1)n2CCSc1nc2ccccc2o1 | 0.09 | 0.84
Cc1ccc(-n2c(N)c(Br)c(=O)[nH]c2=O)cc1C | 0.26 | 0.05
Cc1ccc(-c2noc(CN(C(C)C)S(=O)(=O)c3ccccc3)n2)cc1 | 0.64 | 0.74
CC1CCC(NC(=O)CCc2nc3sc4c(c3c(=O)[nH]2)CCCCC4)CC1 (stereo not drawn) | x | 0.41
CCC(Oc1ccccc1)C(=O)Nc1nn2c(C)nnc2s1 (stereo not drawn) | -1.2 | 1.4
O=C(Cn1ncn2c(cc3cc(F)ccc32)c1=O)NCc1ccco1 | -1.2 | -1.1
CC1(C)Cc2nc3sc4c(SCC(=O)N5CCOCC5)ncnc4c3cc2CO1 | x | 0.14
Cc1ccccc1OCc1nc(C#N)c(NCCN(C)C)o1 | -1.2 | -0.17
Cc1nn(S(=O)(=O)c2cccs2)c(C)c1S(=O)(=O)N1CCCC1 | x | 1.2
CCOC(=O)N1CCN(C2=NS(=O)(=O)C(c3ccc(F)cc3)=C2C)CC1 | x | 1.8
Cc1ccc(S(=O)(=O)c2nc(S(C)(=O)=O)sc2NCCCN2CCCC2=O)cc1 | 1.5 | 0.02

Filtered by structure, the compounds so far containing a CF3 group (2)
mol | CDC25B-CDK2 inh | HIV TAR-Tat
CCOC(=O)C1C(c2ccc(C)o2)NC(=O)NC1(O)C(F)(F)F (stereo not drawn) | -0.56 | x
O=C(/C=C1\OC(=O)c2ccccc21)Oc1cccc(C(F)(F)F)c1 | -0.62 | x

Quoted from the listing:
`Cc1ccccc1OCc1nc(C#N)c(NCCN(C)C)o1` in CDC25B-CDK2 inh reads -1.2
`Cc1ccc(-c2noc(CN(C(C)C)S(=O)(=O)c3ccccc3)n2)cc1` in HIV TAR-Tat reads 0.74
`CC1CCC(NC(=O)CCc2nc3sc4c(c3c(=O)[nH]2)CCCCC4)CC1` (stereo not drawn) in HIV TAR-Tat reads 0.41
`CC1(C)Cc2nc3sc4c(SCC(=O)N5CCOCC5)ncnc4c3cc2CO1` in HIV TAR-Tat reads 0.14
`Cc1nn(S(=O)(=O)c2cccs2)c(C)c1S(=O)(=O)N1CCCC1` in HIV TAR-Tat reads 1.2

(continued)
mol | CDC25B-CDK2 inh | HIV TAR-Tat
Cc1cc(C)c(C(=O)O)c(NO)n1 | -2.4 | x
CCOCCCN1CN(CCc2ccccc2)CNC1=S | 2.2 | x
CCc1cc2c(Nc3ccc(OC)cc3)ncnc2s1 | x | 1.8
CCOC(=O)c1sc(-c2ccc(-c3ccon3)s2)nc1C | -0.88 | x
Clc1cccc(-c2noc3ncnc(Nc4ccc5c(c4)OCCO5)c23)c1 | -1.6 | 1.2
Fc1nc(N2CCOCC2)c2c(c1Cl)Oc1ccccc1O2 | -2.3 | x
Oc1ccccc1-c1nc2ncccn2c1Nc1ccccc1 | -2.1 | 2.1
COc1ccc(Nc2ncccc2[N+](=O)[O-])cc1 | -2.4 | 0.76
CC12CC(NC(=O)N1c1cccc(F)c1)c1cc(Br)ccc1O2 (stereo not drawn) | -1.2 | x
O=C(Cn1c(=O)sc2ccccc21)Nc1cccnc1 | -1.8 | 0.79

Of the compounds above, two have a cyano group:
mol | CDC25B-CDK2 inh | HIV TAR-Tat
COc1ccc(C(=O)Nc2cc(C#N)c3[nH]c4ccccc4n3c2=O)cc1OC | -0.97 | -0.27
Cc1ccccc1OCc1nc(C#N)c(NCCN(C)C)o1 | -1.2 | -0.17

(listing goes on)
mol | CDC25B-CDK2 inh | HIV TAR-Tat
CC(C)C(=O)Nc1ccc2nc(SCC(=O)N3CCOCC3)sc2c1 | -2 | 1.8
CCOc1ccc2c(c1)[C@@H]1C=CC[C@@H]1[C@H](c1ccccc1Cl)N2 | -0.18 | -0.67
COc1ccc(N2CCN(S(=O)(=O)c3ccc4c(c3)n(C)c(=O)n4C)CC2)cc1 | -0.71 | -0.1
Cn1nc(C(=O)N2CCN(c3ccc(Cl)cc3)CC2)c2c1-c1ccccc1OC2 | -1 | 1
O=C1CCSc2ccc(S(=O)(=O)NCc3ccccn3)cc2N1 | x | -0.49
CCN(CC)CCCNC(=O)Cn1ncn2c(cc3sc(C)cc32)c1=O | -0.46 | 0.74
COC(=O)C1=C(N)Oc2cc(N(C)C)ccc2C1c1ccccc1OC (stereo not drawn) | -1.2 | -6.6
CCOC(=O)c1[nH]c(C)c(C(=O)NC(CC)c2cccs2)c1C (stereo not drawn) | -0.85 | 0.87
N#CC1=C2SCN(C3CCCC3)CN2C(=O)CC1c1ccc(Cl)cc1 (stereo not drawn) | 0.82 | 0.27
CC1CCCCC1NC(=O)C(NS(=O)(=O)c1ccc2c(c1)CCC(=O)N2)c1ccccc1 (stereo not drawn) | 0.02 | x
O=S(=O)(Nc1cccc(-c2ccc(N3CCCCC3)nn2)c1)c1ccc(F)cc1 | x | 0.64
Clc1cc2c(c(C[n+]3ccccc3)c1)OCOC2 | -3.9 | x
COC(=O)c1sccc1NN1C(=O)c2cccc3cccc(c23)C1=O | -2.3 | x
Cc1nc(-c2csc(S(=O)(=O)N3CCc4ccccc4C3)c2)no1 | x | -0.29
Cc1ccc(-c2nc3nc4c(c(=O)n3[nH]2)CCC4)cc1 | -1.2 | 1.3
O=C(c1ccco1)N1CCN(C(=O)c2cccc3c2C(=O)N(C2CCCCC2)C3)CC1 | -1.5 | -0.44
CCCN1C(=O)c2cc(C(=O)NCc3ccco3)nn2CC1(C)C(=O)NC1CCCC1 (stereo not drawn) | x | 0.54
N#Cc1nc(/C=C/c2cccs2)oc1NCCCn1ccnc1 | -1.9 | 0.09
Cc1ccc(NC(=O)CSc2nn3c(=O)c(C(C)(C)C)nnc3s2)c(C)c1 | x | 0.34
Cc1nnsc1C(=O)Oc1ccc(Br)cc1 | 0.05 | 0.5
CCN(CC)CCCNC(=O)C1CCCN(c2ncnc3c2nc2n3CCCCC2)C1 (stereo not drawn) | x | 2.4
CCOC(=O)c1sc2cccc(F)c2c1S(=O)(=O)Nc1cc(Cl)c(OC)cc1OC | x | 1.7
CCn1nc(-c2ccc(OC)cc2)nc2c(=O)n(C)c(=O)nc1-2 | -0.08 | 1.8
Cc1cccc(CSc2nc3c(c(=O)[nH]2)C(c2ccc(F)cc2F)CC(=O)N3)c1 (stereo not drawn) | -0.81 | 0.02
O=c1[nH]cnc2[nH]ncc12 | 0.18 | 1.2
Cc1ccc(-c2nsc(NC(=O)c3cc(=O)c4ccc(C)c(C)c4o3)n2)s1 | -1.2 | 0.76
Clc1ccc(C2=CSC3=NCCCN23)cc1 | -1.3 | x
Cc1cc(C)c(NC(=S)NC(NC(=O)c2ccccc2)C(Cl)(Cl)Cl)c(C)c1 (stereo not drawn) | -1.7 | x
